High-throughput results: PubChem, several laboratories
Autofluor counter = counter-screen for toxin protease inhibitors: compound fluorescence; compound autofluorescence counterscreen, microsphere flow cytometry; stronger effect = higher value; fluorescence intensity (test concentration not listed); 3.1% of 360,000 active; AID 624483;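 active = at least 3 SD above the mean of all compounds, about 16000 in these data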;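 note: 100 nL of 1 mM stock went into each well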
PrP UTR inh = suppresses PrP 5' UTR mRNA reporter expression. cell-based PrP 5' UTR mRNA reporter, plate reader. inhibition, % (concentration not given with the values). 0.35% of 340,000 active;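 active = every replicate at 50% or more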;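 note: 0 = median of the neutral control wells; tested in H4 reporter cells; numbers are from one replicate; inactives centre near -14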
BJeLR viability = BJeLR cell viability loss | BJeLR (HRASV12) viability, CellTiter-Glo ATP luminescence, 48 h; reference of the scale not given here | inhibition, % (concentration not given with the values) | 0.17% of 300,000 active | AID 1554;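 active = replicate mean above 50%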;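 note: 50 nL library stock added to about 25 µL; numbers are from one replicate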
RN4220 kill = kills Staphylococcus aureus RN4220. S. aureus RN4220 growth, OD600, 16 h. inhibition, % (no concentration beside the values). 0.33% of 330,000 active;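 active = z-score of -3 or lower and OD600 up to 0.18 on both plates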;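 note: plate controls were untreated cells for no effect and reference antibiotic for full effect; stock transfer was 100 nL into about 80 µL; one replicate is shown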
Sa ugtP lethal = kills S. aureus RN4220 lacking UgtP. S. aureus RN4220 ugtP deletion, OD600 growth, 16 h; some inactives read as strong as hits. growth inhibition, % (concentration not given with the values). 0.54% of 330,000 active. AID 1259309;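 active = z-score under -3 and OD600 up to 0.15 on both plates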;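 note: plate controls were untreated wells for no effect and antibiotic for full effect; wells of about 80 µL received 100 nL stock; the first replicate is given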
Mtb hypoxia rep = Mtb hypoxia fluorescent reporter inhibition. M. tuberculosis hypoxia-regulated fluorescent reporter, fluorescence. fluorescence inhibition, % (no concentration beside the values). 0.1% of 300,000 active;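 active = 35 to 45% if threefold the growth effect, above 45% if 1.5-fold the growth effect; inactive = the rest, general growth blockers included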;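 note: wells of about 50 µL received 100 nL stock; 0% = vehicle wells and 100% = reference inhibitor wells; whole bacteria with a GFP reporter of the hypoxia response; strong numbers were not always called active; many hits fall short of the cut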
Mtb hypoxia rep growth = recorded beside Mtb hypoxia rep, whose call it bears; growth inhibition, %; measured here: M. tuberculosis growth (absorbance);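 0% = vehicle and 100% = reference antibiotic; read after six days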
Active calls of the source: *; . = not tested or not shown.

SMILES | Autofluor counter | PrP UTR inh | BJeLR viability | RN4220 kill | Sa ugtP lethal | Mtb hypoxia rep | Mtb hypoxia rep growth
Cc1ccc(C(=O)N/C(=C\c2cn(C)c3ccccc23)C(=O)NCCCn2ccnc2)cc1 | 6204 | -10 | -20 | 2.0 | 3 | -2 | 0
COc1cc(CNc2ccc3[nH]c(=O)[nH]c3c2)ccc1OCc1c(F)cccc1Cl | 3761 | -33 | 0 | -1.0 | 13 | 12 | 4
CSc1ccc(S(=O)(=O)Nc2ccc(N3CCOCC3)c(Cl)c2)cc1 | 12973 | -16 | -3 | 2.1 | 18 | 16 | 1
Cc1cccnc1NC(=O)COc1ccc2oc3c(c2c1)CCCC3 | 3340 | 8 | 5 | 8.3 | 6 | . | .
O=C(NC1CCS(=O)(=O)C1)Oc1ccc(Cl)cc1 (stereo not drawn) | 6140 | -3 | -3 | 1.1 | -3 | 9 | 9
CCC(=O)N1CCCc2ccccc21 | 6216 | -24 | 1 | 2.4 | 8 | 5 | -1
c1ccc(-c2nnc(CSc3nnc(-c4cccs4)o3)o2)cc1 | 22467* | -15 | -9 | 2.5 | 1 | 5 | 4
Cc1cc(N2CCOCC2)nc2ccc(NC(=O)CCC(=O)N3CCC4(CC3)OCCO4)cc12 | 8979 | -30 | -8 | 3.3 | 2 | 1 | 3
CCC(CO)NC1=C([N+](=O)[O-])C(=O)CC(C)(C)C1 (stereo not drawn) | 2432 | -25 | 11 | 3.8 | 6 | 11 | 8
COc1ccc(C(=O)OC(C)C(=O)NC(C)CCc2ccccc2)c(OC)c1 (stereo not drawn) | 4402 | -55 | 6 | -3.9 | 0 | 1 | 8
O=C(c1ccc2ccccc2c1)N1CCCCC1 | 5083 | 3 | -6 | 6.0 | 7 | 5 | 3
O=C(NN=Cc1cn(-c2cccs2)nc1-c1ccccc1)c1ccccc1O | . | . | . | 31 | -1 | -6 | 5
O=C(NCc1cccnc1)c1ccc(CS(=O)(=O)Cc2ccc(Cl)cc2)o1 | 3404 | -12 | -9 | 3.8 | 3 | 17 | 11
CCn1c(C(=O)N2CCC(C(=O)NCCCSC3CCCCC3)CC2)cc2sccc21 | 4406 | -13 | -2 | -4.6 | 9 | -2 | -3
COc1ccc([N+](=O)[O-])cc1/C=N/Nc1nn[nH]n1 | 4817 | -25 | -5 | . | . | . | .
COc1cc(CNc2cccc3[nH]c(C(F)(F)F)nc23)cc(OC)c1 | 3574 | -7 | 2 | 0.6 | -1 | 4 | 7
CCCN(CCC)Cc1c(C(=O)NN=Cc2ccoc2)nnn1-c1nonc1N | . | . | . | 2.9 | 7 | 13 | -3
CC(=NNC(=O)C1COc2ccccc2O1)c1ccc(Cl)s1 (stereo not drawn) | . | . | . | 0.5 | -1 | 14 | 11
O=C(NCCCN1CCOCC1)C(=O)NN=Cc1c(Cl)cccc1Cl | . | . | . | 17 | -1 | 9 | 6
O=C(Nc1nc2ccccc2n1Cc1ccccc1)c1ccc(COc2ccccc2[N+](=O)[O-])o1 | 7975 | 2 | 11 | 6.3 | 4 | 3 | 5
COC(=O)Cc1csc(Nc2ccc(F)c(Cl)c2)n1 | 3259 | 48 | -7 | 25 | 6 | -7 | 4
Cc1ccsc1CNC12CC3CC(CC(C3)C1)C2 | 4530 | -45 | -3 | 6.5 | 4 | -6 | -1
O=C1/C(=C/c2ccccn2)SC(=S)N1CCc1ccccc1 | 4512 | -17 | -7 | 0.0 | -1 | 1 | 5
O=C(O)c1cccc(S(=O)(=O)Nc2ccc3c(c2)CCC3)c1 | 3127 | -1 | 7 | 4.3 | 24 | 4 | 7
CCOC(=O)CSc1nnc(CNc2cccc(Cl)c2)n1C | 5376 | 9 | -1 | 3.6 | 2 | 8 | 10
Cc1nc(NN=Cc2ccc3c(c2)OCO3)sc1C | . | . | . | 5.0 | -2 | . | .
O=C(c1nc2ccc(Cl)cn2c1CNCCc1cnccn1)N1CCCCCCC1 | 6745 | -5 | 1 | 1.1 | 2 | 3 | 7
O=S(=O)(Nc1ncccn1)c1ccc(NC(=S)Nc2ccc(Cl)cc2)cc1 | 3355 | -20 | -6 | . | . | . | .
COc1ccc(OC)c(/C=C/C(=O)OCC(=O)N2C(C)CCCC2C)c1 (stereo not drawn) | 2835 | -13 | . | 3.8 | 5 | 9 | 8
COC(=O)Cn1cc(/C=C/c2cc[n+](C)cc2)c2ccccc21 | 4547 | -16 | 5 | . | . | . | .
Cc1c(O)ccc(/C=N/Nc2ncccc2[N+](=O)[O-])c1O | 3926 | -32 | 32 | . | . | . | .
CC(=O)c1ccc(NC(=O)CNCC(c2ccccc2)N(C)C)cc1 (stereo not drawn) | 5406 | -9 | -2 | -1.7 | 0 | -2 | 1
Cc1nn(-c2ccccc2)c(C)c1C1C(C#N)=C(N)Oc2n[nH]c(C)c21 (stereo not drawn) | 3695 | -6 | 7 | 2.6 | 0 | 5 | 7
Cc1cc(C)c(C2C(C#N)=C(N)Oc3n[nH]c(C)c32)cc1CN1CCCC1 (stereo not drawn) | 10786 | -12 | 9 | 4.1 | -3 | 6 | 5
CC(=O)Nc1ccc(SCC(=O)NCCc2ccc(F)cc2)cc1 | 5825 | -9 | 2 | -0.9 | 1 | -10 | 0
COc1ccccc1/C=C/C=Nn1c(-c2ccco2)n[nH]c1=S | . | . | . | 8.0 | -5 | 2 | 8
Cc1nc2cc(NCc3ccccc3O)ccc2n1Cc1ccccc1 | 4989 | -22 | 4 | 8.9 | -7 | 1 | 3
CCc1ccccc1NC(=O)CCN1C(=O)C2C3CCC(C3)C2C1=O (stereo not drawn) | 5301 | -47 | 4 | 5.2 | 4 | 8 | 1
CCOc1ccc(N(C)S(=O)(=O)c2ccc3[nH]cc(C(=O)NCC4CCCO4)c(=O)c3c2)cc1 (stereo not drawn) | 4458 | -12 | 2 | -0.3 | -11 | . | .
Cc1c(NC(=O)CN2CCN(C(c3ccccc3)c3ccccc3)CC2)c(=O)n(-c2ccccc2)n1C | 2864 | -4 | -4 | -22 | 3 | 3 | 3
O=C(Cn1c(NCCCCl)nc2ccccc21)c1ccccc1 | 3883 | -19 | . | 7.5 | 6 | 2 | 1
Nn1c(SCC(=O)Nc2ccc3c(c2)OCCO3)nnc1-c1ccncc1 | 6751 | -24 | 6 | 0.8 | 13 | 6 | -11
Cc1cc([N+](=O)[O-])ccc1NC(=O)COc1nsnc1N1CCOCC1 | 6083 | 1 | 3 | 4.0 | 0 | -1 | -2
COc1cc(NC(=O)CN(C)S(=O)(=O)c2ccc(C)cc2)cc(OC)c1 | 3842 | 1 | -1 | -1.9 | -3 | -3 | 1
CN(CC(=O)N1CCCCC1)S(=O)(=O)c1cccc2nsnc12 | 4275 | -4 | 11 | 2.7 | 5 | 1 | -3
Cc1ccccc1NC(=O)C(C)n1c2ccccc2c2nc(=O)cc(C)n21 (stereo not drawn) | 3496 | -8 | 4 | 3.1 | 15 | 2 | 12
CC12CCC(C(=O)Nc3ccccc3Cl)(C(Br)C1=O)C2(C)C (stereo not drawn) | 2713 | -11 | 3 | 5.9 | -3 | 3 | 1
O=C(Cn1cc2c(n1)CCCC2)NC1CCCCCC1 | 5344 | -4 | 0 | 0.6 | -2 | . | .

Single records (already shown). Order of values: Autofluor counter | PrP UTR inh | BJeLR viability | RN4220 kill | Sa ugtP lethal | Mtb hypoxia rep | Mtb hypoxia rep growth
Cc1ccsc1CNC12CC3CC(CC(C3)C1)C2 reads 4530 | -45 | -3 | 6.5 | 4 | -6 | -1
Cc1cc(N2CCOCC2)nc2ccc(NC(=O)CCC(=O)N3CCC4(CC3)OCCO4)cc12 reads 8979 | -30 | -8 | 3.3 | 2 | 1 | 3

Next entries follow:
SMILES | Autofluor counter | PrP UTR inh | BJeLR viability | RN4220 kill | Sa ugtP lethal | Mtb hypoxia rep | Mtb hypoxia rep growth
CCCCc1ccc(NC(=O)CC(C)C)cc1 | 2235 | -51 | -2 | -2.4 | 4 | -3 | -10
CCOC(=O)CSc1c(-c2cccs2)[nH]c2ccccc12 | 2497 | -19 | 5 | 0.2 | -10 | 9 | -1
CCC(C(=O)OCC(=O)N1C(C)CCCC1C)c1ccccc1 (stereo not drawn) | 3531 | . | 1 | 6.9 | 16 | 3 | 4
COc1ccc(NC2CC(=O)N(CCc3ccccc3)C2=O)cc1 (stereo not drawn) | 4690 | -23 | 2 | 1.9 | 2 | . | .
Cc1cc(C)c(NC(=O)CCCN2CCOCC2)c(C)c1 | 7806 | . | -6 | 4.5 | 9 | 13 | 5
O=C(Cc1ccccc1)n1nc(-c2ccco2)nc1SCc1ccccc1 | 10273 | -8 | 8 | -1.0 | 3 | 2 | 4
COc1cc(C2C(C(=O)c3ccc(C)o3)=C(O)C(=O)N2c2cc(C)on2)cc(OC)c1OC (stereo not drawn) | 4862 | -15 | -19 | 2.1 | 3 | 0 | 1
CC(C)CNC(=O)COC(=O)Cc1ccc(Cl)cc1 | 3868 | -38 | 4 | 4.2 | 6 | 15 | 9
COc1ccc(NS(=O)(=O)CC23CCC(CC2=O)C3(C)C)cc1 (stereo not drawn) | 11970 | -29 | 1 | 4.3 | 5 | 1 | -2
CN(Cc1ccccc1)c1ncnc(N)c1[N+](=O)[O-] | 3919 | 5 | 7 | 7.4 | 7 | 11 | 4
CC1(C)C/C(=N\O)c2cc3c(nc2C1)CCCC3 | 23918* | -12 | 1 | . | . | . | .
CCN(CCn1cccn1)Cc1c(C(=O)N2C[C@@H](C)O[C@@H](C)C2)nc2ccc(Cl)cn12 | 4908 | -15 | -2 | 0.4 | -4 | -9 | 3
Cc1sc2ncnc(N3CCC(C(=O)Nc4ccc(Cl)c(Cl)c4)CC3)c2c1C | 3587 | -8 | . | -15 | -26 | 5 | 4
COc1ccc(-c2csc(NC(=O)CSc3nc4ccccc4c(=O)[nH]3)n2)cc1 | 5665 | -28 | -1 | 8.4 | -4 | 1 | 0
CCOC(=O)c1sc(NC(=O)c2ccc(Br)o2)cc1C | 2861 | -101 | 1 | -11 | -7 | 5 | 4
COc1ccc2[nH]c(=O)c(CN(C(=O)c3ccccn3)C3CCCCC3)cc2c1 | 4612 | 4 | -2 | 0.2 | -3 | . | .
Cn1c(CC(=O)Nc2ccccc2F)nnc1SCC(=O)NC1=NCCS1 | 3134 | -15 | -1 | . | . | . | .
COc1ccccc1CNC(=O)c1ccc2ccccc2n1 | 6020 | -9 | -3 | 3.2 | -3 | -7 | -1
O=C(CN1C(=O)c2cccnc2Oc2ccc(Cl)cc21)N1CCCCCC1 | 6477 | -2 | -17 | -1.9 | -7 | -2 | 8
CC(=NCc1ccc2c(c1)OCO2)c1c(O)n(-c2ccc(C)cc2)c(=O)[nH]c1=O | 3740 | -23 | -1 | 2.3 | 1 | 18 | 16
Cc1cc(-c2ccccc2)cc(C)[n+]1Cc1ccccc1 | 4020 | -9 | 7 | 7.1 | 2 | 12 | 10
O=c1c2ccccc2nc(-c2ccoc2)n1-c1ccccc1Cl | 22805* | 3 | -1 | -0.4 | -3 | 2 | -2
O=C(Nc1ccc(O)c2c(=O)cc(-c3ccccc3Cl)oc12)c1cccs1 | 3703 | -16 | -10 | 7.8 | 3 | 17 | 6
COc1ccc(/C(C)=N/NC(=O)c2ccccc2N)cc1 | 4223 | -27 | 6 | . | . | . | .
COc1ccc(/C(O)=C2/C(=O)C(=O)N(c3ccccn3)C2c2ccc(C(C)C)cc2)cc1 (stereo not drawn) | 4216 | -36 | 19 | 10 | -3 | -4 | 4
COc1ccc(NC(=O)Cn2c(=O)n(CC3CCCO3)c(=O)c3cc(OC)c(OC)cc32)c(OC)c1 (stereo not drawn) | 5620 | 3 | 5 | 6.6 | 6 | 2 | 5
Cc1cc(C(=O)Nc2cccnc2)no1 | 7996 | -10 | -8 | -1.3 | 3 | 5 | -3
CC(C)C(=O)N(c1ccc(F)cc1)C1C=CS(=O)(=O)C1 (stereo not drawn) | 10147 | -11 | -9 | 3.1 | 9 | 7 | 2
CCOC(=O)c1c(NC(=O)CCCN2CCOCC2)sc2c1CC(C)(C)OC2 | 4245 | -8 | -8 | -0.5 | 3 | . | .

Only Autofluor counter, for some of the entries so far:
Molecule,Autofluor counter
Cc1cc(C(=O)Nc2cccnc2)no1,7996
CC(C)C(=O)N(c1ccc(F)cc1)C1C=CS(=O)(=O)C1 (stereo not drawn),10147
